Vaccinia Venus: inhibitors of vaccinia virus (Venus reporter); Potency, µM (doses to about 36.5 µM), inactives show top-dose activity change, negative = inhibition, hits mostly inhibitors; Vaccinia virus Venus reporter expression, fluorescence; 0.46% of 330,000 active; active means well fitted inhibition curve with a large enough effect; inconclusive means small, poorly fitted or top-dose-only effect; inactive means no such curve, though single readings can be large or run the other way; tested in A549 cells; also: nearly all actives have a fitted effect of over 30% in size; inactives centre near -10
Vaccinia mCherry: vaccinia inhibition (mCherry reporter); Vaccinia virus mCherry reporter infection, fluorescence; about a quarter of the inactives have no number; Potency, µM (top dose mostly 36.5 µM), without a hit: at the highest dose activity change, negative = inhibition, usual class: inhibitors; 0.63% of 310,000 active; AID 720579; active = well fitted inhibition curve with a large enough effect; inconclusive = small, poorly fitted or top-dose-only effect; inactive = no such curve, though single readings can be large or run the other way; tested in A549 cells; also: nearly all actives have a fitted effect of over 35% in size; inactives centre near -10
Starred values were filed as active, the others as inactive; i = inactive; ? = inconclusive; · = no result given; [ ] = another dose, or the depositor's remark. % is scaled to controls: 0 for no effect and ±100 for the full control effect; potency is read from the fitted curve at half-maximal effect.

SMILES | Vaccinia Venus | Vaccinia mCherry
Cc1ccc(CNC(=O)CCCCCn2c(=O)c3sccc3n(CC(=O)Nc3ccc(C)c(F)c3)c2=O)cc1 | -23% | -26%
COc1cccc(CNc2nc(NCC3CC3)nc3ccsc23)c1OC | -16% | i
COc1cccc(N(C(=O)c2snc(C(N)=O)c2N)C(C(=O)NCC2CCCO2)c2ccc(C)o2)c1 (centres undefined) | 1% | -4%
Cc1ccc(NC(=O)CC2C(=O)N(Cc3ccccc3)C(=S)N2NC(=O)c2cccc(F)c2)c(C)c1 (centres undefined) | ? | i
Cc1ccc(S(=O)(=O)N2CCOCC2)cc1C(=O)N1CC(C)CC(C)C1 (centres undefined) | -2% | i
CC(=O)Nc1ccc(S(=O)(=O)NCC(=O)OCC(=O)NC(=O)C2CCCCC2)cc1 | -11% | -6%
CCC(C)N=Cc1c(NCc2ccco2)nc2c(C)cccn2c1=O (centres undefined) | -9% | -4%
Cc1ccc(S(=O)(=O)NC(C(=O)O)c2ccccc2)cc1 (centres undefined) | -5% | 5%
CCCCn1c(N)c(N(CCC(C)C)C(=O)c2oc3ccc(OCC)cc3c2C)c(=O)[nH]c1=O | -18% | -29%
O=C(NCC1(c2ccccc2)CCOCC1)c1ccc(Br)o1 | -15% | -14%
CCCNC(=O)C1(C)CCN(CCC(=O)c2ccc(Br)cc2)C1 (centres undefined) | 5% | 5%
CC(C)N(Cc1nccn1C)C(=O)c1cc(COc2ccc3ncccc3c2)on1 | -13% | ?
Cc1cccc(-n2ncc(C(=O)N3CCN(c4ccc(Cl)cc4)CC3)c2C2CCN(C(=O)OC(C)(C)C)CC2)c1 | -22% | ?
CCOC(=O)c1ccccc1NS(=O)(=O)c1c(C)nc2sccn2c1=O | ? | ?
O=C(Nc1ccc(NC(=O)c2ccco2)nc1)c1cccc(F)c1 | -9% | -10%
COC(=O)CCCn1cc(CN2CC(N3CCN(C4CCN(C)CC4)CC3)CS2(=O)=O)nn1 (centres undefined) | 0% | 0%
CCN(CC)c1ccc2cc(-c3nc4sc5c(c4c(=O)[nH]3)CCC(C(C)(C)C)C5)c(=O)oc2c1 (centres undefined) | 132%[activator] | -9%
O=C1CCCN1c1ccc(S(=O)(=O)Nc2ccc3c(c2)OCCO3)cc1 | ? | ?
COC(=O)CNC(=O)N1CCN(S(=O)(=O)c2ccc3c(ccn3C)c2)CC1 | -9% | -20%
Cc1ccc(S(=O)(=O)c2cc(O)ccc2O)cc1C | -7% | -5%
COc1cccc(-c2cc(C(=O)NCCCn3ccnc3)no2)c1 | -1% | i
C[C@@]12C(=O)Nc3cc(Cl)ccc3C(=O)N1[C@H]1c3cc(Cl)ccc3OC[C@@H]1[C@@H]2c1ccccc1 | -25% | -14%
Cc1nn(C)c(=O)c(N)c1-c1cc(-c2ccc(Cl)c(Cl)c2)n[nH]1 | 4% | 5%
CCn1c(SCC(=O)Nc2ccc(OC)cc2)nc2nc3c(cc2c1=O)CCCC3 | -2%[7.34 µM] | 19%[7.34 µM]
Cc1ccc(C(=O)COC(=O)CCN2C(=O)C3C4CCC(C4)C3C2=O)cc1C (centres undefined) | -11% | -1%

Sorted by number of heavy atoms (highest first): some entries from above
SMILES | Vaccinia Venus | Vaccinia mCherry
Cc1cccc(-n2ncc(C(=O)N3CCN(c4ccc(Cl)cc4)CC3)c2C2CCN(C(=O)OC(C)(C)C)CC2)c1 | -22% | ?
Cc1ccc(CNC(=O)CCCCCn2c(=O)c3sccc3n(CC(=O)Nc3ccc(C)c(F)c3)c2=O)cc1 | -23% | -26%
COc1cccc(N(C(=O)c2snc(C(N)=O)c2N)C(C(=O)NCC2CCCO2)c2ccc(C)o2)c1 (centres undefined) | 1% | -4%
CCCCn1c(N)c(N(CCC(C)C)C(=O)c2oc3ccc(OCC)cc3c2C)c(=O)[nH]c1=O | -18% | -29%
COC(=O)CCCn1cc(CN2CC(N3CCN(C4CCN(C)CC4)CC3)CS2(=O)=O)nn1 (centres undefined) | 0% | 0%
CC(C)N(Cc1nccn1C)C(=O)c1cc(COc2ccc3ncccc3c2)on1 | -13% | ?
Cc1ccc(C(=O)COC(=O)CCN2C(=O)C3C4CCC(C4)C3C2=O)cc1C (centres undefined) | -11% | -1%
COC(=O)CNC(=O)N1CCN(S(=O)(=O)c2ccc3c(ccn3C)c2)CC1 | -9% | -20%
Cc1ccc(S(=O)(=O)N2CCOCC2)cc1C(=O)N1CC(C)CC(C)C1 (centres undefined) | -2% | i
CCC(C)N=Cc1c(NCc2ccco2)nc2c(C)cccn2c1=O (centres undefined) | -9% | -4%
COc1cccc(-c2cc(C(=O)NCCCn3ccnc3)no2)c1 | -1% | i
CCCNC(=O)C1(C)CCN(CCC(=O)c2ccc(Br)cc2)C1 (centres undefined) | 5% | 5%
Cc1ccc(S(=O)(=O)NC(C(=O)O)c2ccccc2)cc1 (centres undefined) | -5% | 5%
Cc1ccc(S(=O)(=O)c2cc(O)ccc2O)cc1C | -7% | -5%

Further entries
SMILES | Vaccinia Venus | Vaccinia mCherry
CCOC(=O)C1=C(c2ccccc2)NC(=O)NC1c1ccc(OC)cc1OC (centres undefined) | 0% | -8%
Cc1cc(NC(=O)C2CCN(S(=O)(=O)c3cccs3)CC2)no1 | -1% | -7%
CCCc1c(C(=O)Nc2ccc(F)cc2)cnn1-c1ccccc1 | 0%[7.34 µM] | -12%[7.34 µM]
COc1ccc(F)cc1S(=O)(=O)NC1CC(C)(C)NC(C)(C)C1 | -21% | -3%
CC(C)(C)OC(=O)N1CCC(C(=O)N[C@@H](Cc2ccccc2)C(=O)O)CC1 | 3% | ·
COc1ccc2c(C)c(CCC(=O)NCc3cccc(Cl)c3)c(=O)oc2c1 | -2% | -9%
Cc1ccc(Cl)cc1N1CCN(C(=O)c2ccc(CS(=O)(=O)c3ccccc3C)o2)CC1 | 3% | 0%
Cn1ccsc1=NC(=O)c1cccc(OC(F)F)c1 | -10% | -8%
Cc1cc(C(=O)NCCc2ccc(S(N)(=O)=O)cc2)no1 | -11% | -8%
CC(C)NS(=O)(=O)c1ccc(OCC(=O)N2CCN(Cc3ccc4c(c3)OCO4)CC2)c(Cl)c1 | -29% | ?
S=C(N1CCCCCC1)N1CC1 | -14% | -14%
COc1ccc(/C=N/NC(=O)c2c(C)n(C)c3ccc(OC)cc23)c(OC)c1 | -1% | 4%
CN(c1ccccc1)S(=O)(=O)c1cccc(C(=O)N2CCCCCC2)c1 | -6% | -1%
O=C(c1cccc(S(=O)(=O)N2CCCCCC2)c1)N1CCN(c2ccccc2F)CC1 | -23% | i
N=c1c2c(n(Cc3ccccc3)c3c1CCC3)CCC2 | ? | ·
Cc1cc(NC(=O)CS(=O)(=O)c2cn(Cc3ccccc3Cl)c3ccccc23)no1 | -23% | -9%
COc1cccc(C2=CC(=O)C[C@H](c3ccc(F)cc3)C2)c1OC | -11% | i
CCc1cc(C(=O)N/N=C/c2ccc(O)cc2)c2ccccc2n1 | -28% | 0%
CC1CCCCN1C(=O)COC(=O)CSc1ccc(C(N)=O)cc1[N+](=O)[O-] (centres undefined) | -12% | -15%
C#CCN1C(=O)C(O)(CC(=O)c2cc(OC)ccc2OC)c2ccccc21 (centres undefined) | -8% | -12%
CCN(CC)S(=O)(=O)c1ccc(NC(=O)COc2cccc(-n3cnnn3)c2)cc1 | 4% | i
COc1ccc(S(=O)(=O)N2CCOCC2)cc1NC(=O)CSc1cc(C)ccc1C | -13% | -2%
CCOC(=O)c1c(CN(C)C)oc2cc(CN(C)C)c(O)c(CSc3ccccc3)c12 | -14% | ·
CC(=O)NCCc1ccc(S(=O)(=O)NCc2ccc3c(c2)OCO3)cc1 | -4% | -11%
CC(=O)c1cccc(CN2CCC(n3nccc3NC(=O)CCCc3ccccc3)CC2)c1 | -17% | 0%

The list continues.
SMILES | Vaccinia Venus | Vaccinia mCherry
O=C(O)CN1C(=O)/C(=C\c2cccc(OCc3ccccc3F)c2)SC1=S | 2% | -4%
Cc1ccc(SCCC(=O)N2CCC(C)CC2)cc1 | -21% | -21%
CC1CC(C)CN(C(=O)c2ccc(NS(=O)(=O)c3ccc4[nH]c(=O)[nH]c4c3)cc2)C1 (centres undefined) | -13% | -18%
Clc1ccc(-c2cccs2)nn1 | -10% | i
CCN(CC)CCCNC(=O)CC1Sc2ccccc2NC1=O (centres undefined) | 6% | ·
C=CCc1c(N(CC)CC)nc(C)[nH]c1=O | -13% | 0%
CCc1ccc(NC(=O)Cn2c(=O)n(Cc3ccc(C)cc3)c(=O)c3cccnc32)cc1 | -17% | -22%
COc1ccc(N2CCN(C(CNC(=O)c3cccc(OC)c3)c3cccnc3)CC2)cc1 (centres undefined) | -12% | 4%
CCC(=O)Nc1nc2ccc([N+](=O)[O-])cc2s1 | -10% | -13%
NC(=O)c1oc2ccccc2c1NC(=O)CCc1ccccc1 | -2% | -13%
Nc1ccc(-n2nncc2-c2ccccc2)cc1 | -17% | ·
Cc1ccccc1Nc1nc(N)nc(CSc2ccccc2)n1 | -8% | i
COC(=O)c1c(-c2ccc(C)cc2)csc1NC(=S)NC(=O)c1ccc(F)cc1 | -10% | i
CCN(c1ccc(NC(=O)COC(=O)c2ccc3ccccc3n2)cc1)C(C)C | -10% | -4%
CCn1c(SCC(=O)N2CCc3ccccc32)nnc1-c1ccco1 | -4% | -11%
O=C(Oc1ccc(N2C(=O)CCC2=O)cc1)c1ccco1 | -6% | -19%
Cc1nn(C(C)(C)C)c(OC(=O)c2cccc(F)c2)c1Sc1ccccc1 | -9% | -23%
CCOC(=O)c1cc(C(=O)Nc2cccc(C)c2)nn1C | -5% | -6%
CCOC(=O)Cn1c(=NC(=O)c2nc3ccccc3s2)sc2cc(S(N)(=O)=O)ccc21 | -20% | i
CC(C)(C)OC(=O)N1CCC(c2c(C(=O)N3CCN(c4ncccn4)CC3)cnn2-c2ccccc2)CC1 | 3% | -4%
COc1ccc(NC(=O)COc2ccccc2C(N)=O)cc1S(=O)(=O)N1CCCCC1 | -16% | -15%
O=C(NCC(=O)N1CC=C(c2ccccc2)CC1)c1ccccc1Br | ? | ?
COc1ccc(Cl)cc1NC(=O)CN(c1cc(C)cc(C)c1)S(=O)(=O)c1c(C)n[nH]c1C | -14% | -19%
O=C(Nc1ccc(Cc2ccncc2)cc1)c1ccc([N+](=O)[O-])o1 | ? | 10µM*
CN(C)S(=O)(=O)c1cccc(NC(=O)COC(=O)/C=C/c2cccs2)c1 | -6% | -13%

Single entries from the entries so far.
O=C(Nc1ccc(Cc2ccncc2)cc1)c1ccc([N+](=O)[O-])o1 – Vaccinia mCherry: 10µM*
COc1ccc(NC(=O)COc2ccccc2C(N)=O)cc1S(=O)(=O)N1CCCCC1 – Vaccinia Venus: -16%

Later entries:
SMILES | Vaccinia Venus | Vaccinia mCherry
CCCCNC(=O)c1nn(-c2ccccc2OC)c(=O)c2ccccc12 | -6% | ·
CCCCNc1nc2c(-c3cccc(C)c3)nnn2c2ccccc12 | 4% | 5%
O=C(Nc1ccc(NS(=O)(=O)c2ccccc2)cc1)c1ccc(Cl)cc1 | -22% | -22%
COc1cc(C(C(=O)NC2CCCC2)N(C(=O)c2snc(C(N)=O)c2N)C2CCCC2)cc(OC)c1OC (centres undefined) | 6% | -8%
Cc1noc(C)c1CSc1ccccc1C(=O)O | 3% | ?
CCNC(=O)C1(C)CCCN(C(=O)c2cc(OC)ccc2Br)C1 (centres undefined) | 17% | 5%
COc1cc(NC(=O)CN2CCC(C(N)=O)(N3CCCCC3)CC2)c(OC)cc1Cl | -6% | -10%
CC(O)(P(=O)(O)O)P(=O)(O)O | -12% | -10%
O=c1cc(-c2ccccc2)oc2cc(OCc3ccccc3)cc(O)c12 | -1% | -3%
COc1ccc(CNC(=O)CCCn2nc(C)c3c(C)n(-c4ccccc4)nc3c2=O)cc1 | -11% | -5%
COc1ccc(/C=C\c2onc(C)c2S(=O)(=O)N2CCC(C(=O)Nc3cccc(OC)c3)CC2)cc1 | -25% | -22%
CSc1nc2ncc(C#N)cn2n1 | -4% | i
CCOC(=O)NC(=O)/C(C#N)=N\Nc1ccc(Cl)cc1 | -20% | ·
O=C(Cc1ccc(Cl)cc1)NNC(=O)c1ccco1 | -2% | i
NC(=S)Nc1cccc(F)c1 | -12% | i
CC(C(=O)N1CCN(Cc2ccc3c(c2)OCO3)CC1)c1ccc([N+](=O)[O-])cc1 (centres undefined) | -4% | i
CC(NC(=O)CCc1nnc(C2(c3ccc(Cl)cc3)CCC2)o1)C1CC1 (centres undefined) | -7% | -1%
COc1ccc(N(CC(=O)NCCSCc2ccco2)S(=O)(=O)c2ccccc2)cc1Cl | -16% | -18%
Cc1ccc(S(=O)(=O)NCCC(=O)NNC(=O)COc2ccc(Br)cc2)cc1C | -15% | -4%
CC(O)CN=c1cc(-c2ccccc2)oc2ccc(Cl)cc12 (centres undefined) | -15% | ·
CCC(CC)c1nnc(NC(=O)COc2ccc3c(c2)OCO3)s1 | 10% | -16%
CC(C)c1ccc(NC2CCCN(C(=O)c3ccnn3C)C2)cc1 (centres undefined) | -12% | -14%
COCCCNC(=S)Nc1ccccc1[N+](=O)[O-] | 5% | -2%
COc1cc(N(C(C)=O)c2ccc(O)cc2)c2ncccc2c1 | -5% | i
CCOc1ccc(C2CC(=O)c3c([nH]c(C(=O)OC)c3C)C2)cc1OC (centres undefined) | -23% | ·
O=c1oc2c(-c3ccc([N+](=O)[O-])cc3)cc(O)cc2s1 | -16% | ?
c1ccc2cc(OCCCn3ccnc3)ccc2c1 | -21% | -8%
COc1ccccc1C(=O)Nc1ccc(S(=O)(=O)N2CCCCC2c2cccnc2)cc1 (centres undefined) | -11% | -8%
Cc1cc(NC(=O)CSc2cn(CCNC(=O)c3ccc(Cl)cc3)c3ccccc23)no1 | -20% | -29%

Source: PubChem BioAssay (National Center for Advancing Translational Sciences (NCATS))
